Compound activity deposited in PubChem by National Center for Advancing Translational Sciences (NCATS).
TRPML1 inh: inhibitors of human TRPML1 channel. Q9GZU1. TRPML1-inducible cells, Ca2+ dye fluorescence, FDSS; active compounds read low; inhibition of EC80 agonist-evoked calcium signal. activity change, negative = inhibition, % (test concentration not listed). 0.02% of 390,000 active; in the data active means activity change below about -50%; inconclusive means about -30% to -50%; inactive means above about -30%;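 further: stimulus is agonist 54-4 at its EC80 concentration; on the % scale 0 is the no-effect control and ±100 the full control effect; compound concentration not given in the record; the text of the record puts the active cut at -80%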
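Calcium fluorescence in TRPML1-DL cells induced overnight with Tet: a 110 s read after compound pin addition, then a 110 s antagonist read after challenge with 54-4 at 4 uM final (EC80).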
Six1-Eya2 blk: blocks human Six1 binding to Eya2 | Q15475+O00167 | AlphaScreen GST-Six1/His-Eya2 binding, biochemical; active compounds read low; control for the full effect not named in the record | activity change, % (concentration not given with the values) | 0.56% of 360,000 active | AID 651725; in the data active = activity change below about -65%; inconclusive = about -30% to -65%; inactive = above about -30%; further: on the % scale 0 is the no-effect control and ±100 the full control effect
Target sequence (O00167 whole entry, looked up): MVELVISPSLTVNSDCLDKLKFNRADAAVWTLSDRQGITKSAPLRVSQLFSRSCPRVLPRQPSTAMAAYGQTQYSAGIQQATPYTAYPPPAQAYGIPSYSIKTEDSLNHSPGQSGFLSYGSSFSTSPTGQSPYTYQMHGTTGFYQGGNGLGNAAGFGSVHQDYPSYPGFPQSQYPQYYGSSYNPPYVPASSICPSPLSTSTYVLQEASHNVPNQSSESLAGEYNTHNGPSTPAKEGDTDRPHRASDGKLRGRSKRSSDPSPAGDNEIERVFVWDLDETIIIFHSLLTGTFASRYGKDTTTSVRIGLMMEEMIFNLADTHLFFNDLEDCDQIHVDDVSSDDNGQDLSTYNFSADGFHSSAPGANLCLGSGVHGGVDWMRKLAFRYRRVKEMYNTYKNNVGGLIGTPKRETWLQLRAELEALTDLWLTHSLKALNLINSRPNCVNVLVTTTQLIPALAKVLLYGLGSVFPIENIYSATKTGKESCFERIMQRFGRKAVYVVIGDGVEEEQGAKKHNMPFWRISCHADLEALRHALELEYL
Target sequence (Q15475 whole entry, looked up): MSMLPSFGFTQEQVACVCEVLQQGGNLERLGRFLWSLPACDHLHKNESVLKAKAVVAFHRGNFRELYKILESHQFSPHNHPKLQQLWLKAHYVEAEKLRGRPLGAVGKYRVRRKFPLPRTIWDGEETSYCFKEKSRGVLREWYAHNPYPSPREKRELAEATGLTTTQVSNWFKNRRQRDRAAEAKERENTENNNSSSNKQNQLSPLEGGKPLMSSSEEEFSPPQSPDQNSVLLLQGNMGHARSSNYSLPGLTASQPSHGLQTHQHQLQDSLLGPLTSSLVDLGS
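Compounds are tested against tagged Six1 and Eya2 proteins bridged by glutathione donor and nickel acceptor beads; after a one-hour incubation at 37 °C without light, AlphaScreen emission is recorded.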
D2 agonist: agonists of human D2 dopamine receptor (beta-arrestin) | DiscoveRx PathHunter D2 beta-arrestin, luminescence, 90 min; 100% = 57 uM dopamine signal | activation, % (test concentration not listed) | 0.084% of 360,000 active; in the data active = activation above about 40%; inconclusive = about 15% to 40%; inactive = below about 15%; further: compound concentration not given in the record; the text of the record calls up to 30% inactive
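Agonist mode: compounds alone added to overnight-plated D2 PathHunter cells for 90 min at 37 C, with 57 uM final dopamine (EC100) defining full response. Beta-arrestin recruitment detected by chemiluminescent reagent, read after 1 h at ambient temperature.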
TRPML1 ag: human mucolipin-1 channel agonism | 0.12% of 410,000 active | TRPML1-expressing cells, Ca2+ dye fluorescence, FDSS; host cell line not named in the record; reference of the full effect not given here | activation, % (test concentration not listed); in the data active = activation above about 50%; inconclusive = about 30% to 50%; inactive = below about 30%; further: 0% is about no effect; the text of the record puts the active cut at 80%
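Cells: TRPML1-DL, 1X Tet inducer, ~16 h at 37 degrees C/5% CO2. Dye: ABD Ca8 no-wash + quencher, 45-90 min RT. Read: 10 s baseline, compound add, 110 s agonist phase; 54-4 EC80 (4uM final), 110 s antagonist phase.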
CtBP-E1A blk: CtBP/E1A binding inhibition; AlphaScreen GST-E1A/His-CtBP binding, 1536-well; active compounds read low; control for the full effect not named in the record; activity change, % (concentration not given with the values); 0.49% of 340,000 active; in the data active means activity change below about -65%; inconclusive means about -30% to -65%; inactive means above about -30%; further: on the % scale 0 is the no-effect control and ±100 the full control effect
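Homogeneous bead-based format: GST-tagged E1A captured on glutathione donor beads, His-tagged CtBP on nickel acceptor beads; compounds precede bead addition by 2 h at 37 °C.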
PINK1 modulator: modulators of PINK1 expression. Potency, µM (series often up to 76.6 µM), inactives show at the top dose activation (PINK1 increase), most hits filed as activators. 0.2% of 410,000 active. PINK1 immunofluorescence, high-content cytometry, 24 h. AID 624263; active = well fitted activation curve with a large enough effect; inconclusive = small, poorly fitted or top-dose-only effect; inactive = flat fitted curve, though single readings scatter; cell line not stated here;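 further: potency means the concentration at half of the fitted maximal effect; % of control where 0% means no effect; nearly all actives have a fitted effect of over 65% in size; a mitochondrial uncoupler was the plate control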
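A stable cell line was treated with compounds at 5 concentrations for 24 hours, with CCCP as control. PINK1 levels and mitochondrial localization were measured by immunofluorescence with mitochondrial, cell and nuclear markers after fixation, read by laser-scanning cytometry.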
* hit, by the source's call; . = not tested or not shown; & = joins results of further samples; [ ] = another dose, or the depositor's remark.

SMILES	TRPML1 inh	Six1-Eya2 blk	D2 agonist	TRPML1 ag	CtBP-E1A blk	PINK1 modulator
Cc1c(NC(=O)C(=O)/C=C(\O)c2ccc(Cl)cc2)c(=O)n(-c2ccccc2)n1C	6	-1	-0.5	1.1	-6	-0.9%
COc1ccccc1CCNC(=O)CSCC(=O)Nc1ccccc1F	-10	9	-3.5	-0.3	-17	-0.2%
O=C1CC(N(CCc2ccccc2)C(=S)Nc2ccccc2)C(=O)N1c1ccccc1 (centres undefined)	43	25	-3.9	2.8	2	25µM*
Cc1cc(Br)ccc1SCC(=O)NNC(=O)c1ccco1	19	-7	-2.8	-1.7	.	-0.8%
CC(C)N1CCc2c(sc(NC(=O)c3ccc(S(=O)(=O)N(C)CC4CCCO4)cc3)c2C(N)=O)C1 (centres undefined)	2	-2	-2.6	-0.3	2	0.3%
O=C(CSc1nnc(NC(=O)c2c(F)cccc2F)s1)NC1CC1	-7	11	-3.5	0.8	-1	-0.5%
CCOc1cc(C)c(Cl)cc1S(=O)(=O)NCCOC	3	5	-1.1	0.7	9	-0.2%
CCOC(=O)C1=C(C)NC2=C(C(=O)C(C(=O)OC)C(C)C2)C1c1ccc(OC)c(O)c1 (centres undefined)	13	2	0.9	-0.1	1	14%
CC1(c2ccccc2)CC(C)(C)N(C(=O)c2cccc(Cl)c2)c2ccccc21 (centres undefined)	-8	.	.	1.3	.	-0.6%
Cc1cc(C)cc(-n2c(C)cc(C(=O)C(=O)Nc3nnc(C)s3)c2C)c1	31	.	.	0.0	.	5.3%
COc1cccc(CN2CCN(Cc3ccc(C)o3)CC2CCO)c1 (centres undefined)	-3	5	0.7	-0.7	4	2.6%
COc1ccc(S(=O)(=O)Nc2cccc3c2O[C@H](CN(C)S(=O)(=O)c2ccc(F)cc2)[C@H](C)CN([C@H](C)CO)C3=O)cc1	-11	-2	-2.2	0.2	0	2.3%
CC(C)CCOc1ccc(C(=O)Nc2cc(S(=O)(=O)N3CCOCC3)ccc2N2CCOCC2)cc1	20	0	-3.9	0.2	2	-1.0%
COc1cc(NC(=O)c2cccnc2SC)cc(OC)c1	3	-5	-3.1	0.1	2	3.1%
Cc1ccc(S(=O)(=O)N/N=C2/CC(c3ccccc3)Oc3ccccc32)cc1 (centres undefined)	22	-9	0.7	0.8	-4	0.5%
COC(=O)c1ccc(NC(=O)CN2CCCC2)cc1	0	1	-4.0	-0.3	4	-0.5%
O=C(Cc1coc2ccc3ccccc3c12)NC1CCCc2ccccc21 (centres undefined)	11	-5	-0.5	2.8	3	16%
CC(=O)Nc1ccc(NC(=O)CCNS(=O)(=O)c2cccc3nsnc23)cc1	-9&-16	10	-0.3	-0.4&-0.1	1	-2.0%&-0.5%
COCCCn1c(Cc2csc(Nc3ccccc3)n2)nnc1SCC(N)=O	-21	-10	-2.4	3.1	-9	-1.3%
COc1cc(OC)c(S(=O)(=O)Nc2ccccc2N2CCCCC2)cc1NC(C)=O	24	2	-2.6	1.4	6	0.1%
CC(C)N(C(=O)CSc1cn(CC(=O)N2CCCCCC2)c2ccccc12)C(C)C	14	.	.	0.4	.	2.1%
COc1ccc(OC)c(CCNC(=O)c2cnn(-c3ccccc3)c2C2CCN(C(=O)OC(C)(C)C)CC2)c1	-11	.	.	1.4	.	0.6%
COc1ccccc1C(=O)NCC(=O)N1CCN(S(=O)(=O)c2ccc3c(c2)OCCO3)CC1	-12	4	-0.3	-0.7	2	6.9%
O=C(NC(CSSCC(NC(=O)c1ccccc1)C(=O)O)C(=O)O)c1ccccc1 (centres undefined)	.	4	-1.4	.	7	1.0%
CCOc1ccccc1OCC(=O)Nc1nnc(C)s1	-9	23	-2.5	-0.4	46	.
COc1ccc(S(=O)(=O)N2CCC3(CC2)CC(=O)c2ccccc2O3)cc1	-14	24	1.5	-0.4	4	3.4%
CCc1nc2c(OCc3cccc(Cl)c3)cccn2c1N(C)C(=O)c1ccncc1	.	1	8.0	-0.7	0	3.4%
Cc1cccc(N2CCN(C(=O)c3cc4c(=O)[nH]c5ccccc5c4n3C)CC2)c1C	22	-3	-1.7	0.6	9	14%
COc1cccc(/C(O)=C2\C(=O)C(=O)N(c3ccccn3)C2c2cccc(OC)c2OC)c1 (centres undefined)	0	3	-2.3	-0.6	0	5.7%[38.3 µM]
Cc1nc2ccc(Br)cn2c1C(=O)N/N=C\c1ccc(C(C)C)cc1	.	0	7.0	.	.	6.3%
CCOc1ccc(C(=O)N[C@H](C(=O)Nc2ccccc2OC)C(C)C)cc1	7	-1	-3.9	-0.7	4	-0.9%
CCOc1ccc(-c2c(C(=O)N/N=C/C3CCCCC3)nnn2-c2nonc2N)cc1	5	3	0.8	0.3	-5	-0.7%
COc1ccc(C2C(C(=O)NCc3ccco3)CCC(=O)N2c2ccc(OC)cc2)cc1 (centres undefined)	-8	-1	-1.1	0.2	2	-0.4%
Oc1c(CN2CCOCC2)cc(CN2CCOCC2)cc1CN1CCOCC1	0	9	1.5	-0.5	5	-4.1%
CCC(=O)Nc1cc2c3c(c1)CCC(=O)N3CCC2	3	-1	2.5	-0.8	.	2.6%
Cc1c(NC(=O)Nc2ccccc2)c(=O)n(-c2ccccc2)n1C	0	3	10	0.3	0	-0.6%
O=C(COC(=O)/C=C/c1ccc(Br)o1)NC1CCCCC1	-3	-5	-5.5	0.4	-10	0.2%
COc1cc(OC)cc(C(=O)N2CCN(Cc3ccccc3Br)CC2)c1	-11	0	5.3	2.5	0	-0.7%
COc1ccc(OC)c(C(O)c2ncc(-c3ccc(C(F)(F)F)cc3)[nH]2)c1 (centres undefined)	4	-18	-2.4	-0.3	-11	7.0%
O=C(CN1C(=O)CSC1=O)Nc1ccccc1N1CCOCC1	-2	1	-2.1	-0.9	2	-1.5%
Fc1ccc2c(c1)/C(=N/Nc1ccccn1)CCS2	13	-23	-2.2	1.4	-19	2.5%
Cc1ccc(-n2cccc2/C=C2/C(=N)N3C(=NC2=O)SN=C3S(C)(=O)=O)cc1	12	-12	-0.7	0.4	-3	2.9%
COc1ccc(N2CCN(CC(=O)NC(C)c3ccccc3)CC2)cc1 (centres undefined)	25	0	2.7	-0.1	-13	1.7%
CC(=O)Nc1ccc(/C=C/c2nc3ccccc3[nH]c2=O)cc1	7	-1	-4.1	1.4	-5	-0.3%
CN(C)S(=O)(=O)c1ccc2oc(SCC(=O)Nc3ccccc3F)nc2c1	3	3	-7.7	0.1	-6	-0.1%

Structures above printed as active in PINK1 modulator.
SMILES	TRPML1 inh	Six1-Eya2 blk	D2 agonist	CtBP-E1A blk	PINK1 modulator
O=C1CC(N(CCc2ccccc2)C(=S)Nc2ccccc2)C(=O)N1c1ccccc1 (centres undefined)	43	25	-3.9	2	25µM*

Continuation:
SMILES	TRPML1 inh	Six1-Eya2 blk	D2 agonist	TRPML1 ag	CtBP-E1A blk	PINK1 modulator
Cc1ccc(N=Nc2ccc(O)c3ncccc23)cc1C	-14	-18	-13	0.6	-5	4.3%
CC(C)CCN(C(=O)CNC(=O)c1ccco1)C(C(=O)NC1CCCCC1)c1cccnc1 (centres undefined)	-5	3	-2.5	-0.4	0	2.5%
O=C(CCCCn1c(=O)c2ccccc2n(CC(=O)Nc2ccc(F)cc2)c1=O)NCc1ccco1	24	1	0.2	2.6	-10	-2.7%
O=c1c2cccnc2n(Cc2ccccc2F)c(=O)n1Cc1ccc(F)cc1	-17	.	.	1.3	.	6.7%
CC(C)(C)c1nnc2sc(SCC(=O)N3CCCCC3)nn2c1=O	-11	2	-2.0	0.5	5	-0.5%
CCc1ccc(S(=O)(=O)Nc2c(C)nc3nc[nH]n3c2=O)cc1	0	3	3.9	0.8	0	3.2%
Cc1ccccc1S(=O)(=O)Cc1ccc(C(=O)N2CCN(c3ccccc3F)CC2)o1	-5	0	-1.4	-0.6	3	-1.0%
COCCNC(=O)c1cc(S(=O)(=O)N(C)c2ccccc2OC)ccc1C	-10	15	0.1	1.8	2	0.4%
CC1(C(=O)NS(=O)(=O)Cc2ccccc2)CCN1C(=O)c1ccc(C2CCCCC2)cc1 (centres undefined)	.	0	-2.8	-1.0	-4	-0.9%
COC(=O)c1ccc(Cl)cc1NC(=O)Nc1nnc(N2CCCC2)s1	5	.	.	0.0	.	-0.1%
O=C(COC(=O)C12CC3CC(CC(O)(C3)C1)C2)Nc1cccc(Br)c1	2	6	-1.3	1.8	-4	-0.4%
COC(=O)c1sc(N(C)C)c(C#N)c1-c1ccccc1	10	-1	-0.7	0.9	3	2.4%
COc1ccccc1CNC(=O)C(NC(=O)C1CCCCC1)C(C)C (centres undefined)	29	5	-1.4	1.1	6	0.4%
Cc1cc2oc(C(=O)Nc3ccc(S(=O)(=O)Nc4ncccn4)cc3)cc(=O)c2cc1C	-7	.	.	-0.2	.	-1.0%
Cc1ccc(S(=O)(=O)N(CC(=O)Nc2ccc(C)cc2C)C(=O)N2CCN(C)CC2)cc1	5	3	-0.7	-0.3	4	-3.0%

A run of entries from further up:
SMILES	TRPML1 inh	Six1-Eya2 blk	D2 agonist	TRPML1 ag	CtBP-E1A blk	PINK1 modulator
Cc1ccc(N=Nc2ccc(O)c3ncccc23)cc1C	-14	-18	-13	0.6	-5	4.3%
CC(C)CCN(C(=O)CNC(=O)c1ccco1)C(C(=O)NC1CCCCC1)c1cccnc1 (centres undefined)	-5	3	-2.5	-0.4	0	2.5%
O=C(CCCCn1c(=O)c2ccccc2n(CC(=O)Nc2ccc(F)cc2)c1=O)NCc1ccco1	24	1	0.2	2.6	-10	-2.7%
O=c1c2cccnc2n(Cc2ccccc2F)c(=O)n1Cc1ccc(F)cc1	-17	.	.	1.3	.	6.7%

Back to the main list, repeating the 3 entries before the break.
SMILES	TRPML1 inh	Six1-Eya2 blk	D2 agonist	TRPML1 ag	CtBP-E1A blk	PINK1 modulator
COc1ccccc1CNC(=O)C(NC(=O)C1CCCCC1)C(C)C (centres undefined)	29	5	-1.4	1.1	6	0.4%
Cc1cc2oc(C(=O)Nc3ccc(S(=O)(=O)Nc4ncccn4)cc3)cc(=O)c2cc1C	-7	.	.	-0.2	.	-1.0%
Cc1ccc(S(=O)(=O)N(CC(=O)Nc2ccc(C)cc2C)C(=O)N2CCN(C)CC2)cc1	5	3	-0.7	-0.3	4	-3.0%
CC(C)c1ccc(CNC(=O)C2CC(=O)N(C3CCCCC3)C2)cc1 (centres undefined)	-19	0	-3.0	0.3	7	5.7%
O=C(/C=C/c1ccccc1)NC(=S)Nc1ccc(CN2CCOCC2)cc1	-2	-7	1.0	0.8	1	3.1%
CCCCC1CCC(C(=O)NC2CCS(=O)(=O)C2)CC1 (centres undefined)	25	5	-2.9	0.6	0	-1.9%
O=C(CCc1ccccc1)Nc1cccnc1Cl	10	1	-1.8	0.9	7	0.3%
CC1=C(C(=O)OC(C)C)C(c2ccsc2)NC(=O)N1C (centres undefined)	-15	0	-1.8	0.0	7	-1.9%[38.3 µM]
O=C(CSc1ncnc2c1cnn2Cc1ccccc1)Nc1ccc2c(c1)OCCO2	-15	0	-2.1	2.7	1	4.8%
c1ccc2c(c1)ccn2CCCN1CCCCC1	11	6	-4.2	-0.3	0	-5.8%
COc1ccccc1CCN=C(N)NS(=O)(=O)c1ccc(F)cc1	-12	7	-2.9	0.3	-1	1.4%
CCOC(=O)C1(Cc2cccc(F)c2)CCN(Cc2cnc(C)s2)CC1	10	7	-0.2	0.1	.	2.2%
c1ccc2[nH]c(-c3ccnc4ccccc34)nc2c1	9&0	-6&1	-1.9&-2.2	-0.8&-0.5	4&4	0.7%
